High-throughput results (PubChem)
NPYLR7 ag: activates Aedes aegypti NPYLR7 receptor; hit rate 0.15% among 270,000; HEK293T NPYLR7/Galpha15, GCaMP6s calcium fluorescence; activation, % at 10 µM; in the data active means activation above about 40%;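 further: 0% = vehicle and 100% = reference agonist at the receptor; some compounds past the cut are filed as inactive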
NPYLR7 ag max-min: second read-out of NPYLR7 ag, no call of its own (marks repeat the call); activation, %; measured here: Max-Min RFU normalised activation; some inactives read as strong as hits;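 span of the calcium signal over five minutes; 0% = vehicle and 100% = native peptide agonist; compound fluorescence can raise it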
An asterisk follows results filed as active; & = joins results of further samples. An excerpt; count on the stated rates, not on these rows.

SMILES | NPYLR7 ag | NPYLR7 ag max-min
COc1ccc2c(CN3CCN(Cc4cccc(F)c4)C(=O)C3)[nH]nc2c1 | 8 | 8
O=C(c1ccc([N+](=O)[O-])s1)N1CCCCCC1 | 5 | 1
O=S1(=O)C=C(Br)c2ccccc21 | 8 | 6
Cc1ccccc1C(C)NC(=O)CCc1c(C)nc2c3ccccc3nn2c1C (stereo not drawn) | -7 | -10
Cc1nc(C2(NC(=O)c3cc4c([nH]c3=O)CCCC4=O)CCCCC2)no1 | 0 | -2
COC(=O)C1CCN(C(=O)CN2CCCc3c(C)ccc(F)c32)CC1 | 7 | 3
Cc1sc(NC(=O)c2sc3nc4c(cc3c2N)N2CCC4CC2)c(C#N)c1C | 0 | -2
OC(COc1ccc2c(c1)OCO2)CN1CCN(Cc2ccc3c(c2)OCO3)CC1 (stereo not drawn) | -1 | -1
Cc1ccc(N2CC(C(=O)NC3CCN4CCCCC34)CC2=O)cc1 (stereo not drawn) | 5 | 1
N=c1ncn(Cc2ccccc2)c2nc(SCCO)[nH]c12 | 5 | 2
CC(=O)N1CCc2c(sc(NC(=O)c3c(F)cccc3F)c2-c2nc3ccccc3s2)C1 | 4 | -4
CC(C)Oc1cccc(C(=O)C2CCCN(C(=O)/C=C/c3cccs3)C2)c1 (stereo not drawn) | 2&1 | 0&-1
CC(=O)Nc1ccc(-c2cn(CCc3nc(C)c4c(n3)CCC4)nn2)cc1 | 30 | 20
COc1ccc(Br)cc1CN(C)C(=O)c1nn(C)c(=O)c2ccccc12 | 7 | 3
CC(NC(=O)c1cc(Cl)ccc1OC1CCN(C2CCCC2)CC1)c1ccncn1 (stereo not drawn) | 22 | 13

Reprinted from the part before: 7 entries, then new ones.
SMILES | NPYLR7 ag | NPYLR7 ag max-min
Cc1ccc(N2CC(C(=O)NC3CCN4CCCCC34)CC2=O)cc1 (stereo not drawn) | 5 | 1
N=c1ncn(Cc2ccccc2)c2nc(SCCO)[nH]c12 | 5 | 2
CC(=O)N1CCc2c(sc(NC(=O)c3c(F)cccc3F)c2-c2nc3ccccc3s2)C1 | 4 | -4
CC(C)Oc1cccc(C(=O)C2CCCN(C(=O)/C=C/c3cccs3)C2)c1 (stereo not drawn) | 2&1 | 0&-1
CC(=O)Nc1ccc(-c2cn(CCc3nc(C)c4c(n3)CCC4)nn2)cc1 | 30 | 20
COc1ccc(Br)cc1CN(C)C(=O)c1nn(C)c(=O)c2ccccc12 | 7 | 3
CC(NC(=O)c1cc(Cl)ccc1OC1CCN(C2CCCC2)CC1)c1ccncn1 (stereo not drawn) | 22 | 13
NC(=O)c1cccc(CC2CCN(C(=O)c3cccc(OC(F)F)c3)C2)c1 (stereo not drawn) | 3 | 3
Cn1c(=O)[nH]c(=O)c2c1nc(SCc1ccc(F)cc1)n2Cc1ccccc1 | 1 | 11
S=c1[nH]nc(-c2ccc(Cl)cc2)n1N=CC=Cc1ccco1 | 6 | 4
Cn1ncc2c(N[C@H](CO)c3ccccc3)nc(C(C)(C)C)nc21 | -2 | -12
Cc1c(C)n2c3c(=O)n(C)c(=O)n(C)c3nc2n1-c1ccc(Oc2ccccc2)cc1 | 0 | 2
COc1ccc(S(=O)(=O)Oc2ccc(-c3nc4ccc(Br)cn4c3NC(C)(C)CC(C)(C)C)cc2OC)cc1 | 7 | 7
COc1cccc(C(N)c2nc(-c3csc4ccccc34)cs2)c1 (stereo not drawn) | 7 | 2
Cc1cc(Oc2ccccc2Cl)nc(SCc2cccc(Cl)c2)n1 | -14 | -12
C=CCOc1ccccc1/C=C1\C(=O)N(c2ccccc2)N=C1C | -12 | -18
CC(C)NC(=O)c1cc(C2CCCCN2C(=O)c2cc(C(C)(C)C)nn2C)on1 (stereo not drawn) | 4 | -1
c1ccc(CCc2noc(CN3CCCC(c4nc5ccccc5o4)C3)n2)cc1 (stereo not drawn) | -3 | -5
CCOC(=O)C1=C(C)NC2=C(C(=O)CCC2)C1c1ccc(Cl)cc1Cl (stereo not drawn) | 9 | 10
O=C(c1ccco1)N(CCCN1CCOCC1)c1nc2ccc(F)cc2s1 | -10 | -11
COc1cccc(OC)c1-c1cnnc(N2CCN3CCCC3C2)n1 (stereo not drawn) | 0 | 2
Cc1nn(C)c2[nH]c(=O)c(CCC(=O)N3CCOC(c4ccc(F)cc4)C3)c(C)c12 (stereo not drawn) | 0 | 3
O=c1cc(-c2ccncc2)[nH][nH]1 | 2 | 6
Cc1cc(C(F)(F)F)n2nc(C)c(C#N)c2n1 | 4 | 3
Cc1cccc(NC(=O)CSc2nccn3nc(-c4ccccc4)cc23)c1C | -1 | -4
COc1cc(C#N)ccc1OS(=O)(=O)c1c(C)c(C)cc(C)c1C | 9 | 5
Cc1ncsc1CCCNC(=O)c1ccc2nc(C3CCCCC3)oc2c1 | 18 | 10
Clc1ccc(CN2CCN(N=CC(Br)=Cc3ccccc3)CC2)cc1 | 1 | -2
CC(C)C(=O)Nc1nc(OCC(F)(F)F)cnc1-c1ccccc1 | -7 | -13
COc1ccc(S(=O)(=O)Nc2cc(F)cc(N3CCOCC3)c2)cc1OC | 1 | 0
CCOC(=O)c1cc(-c2ccc(N3CCN(C(=O)c4cccc(OC)c4)CC3)cc2)n(-c2ccccn2)n1 | 10 | 1
COc1ccc(CNC(=O)CCC2CCCN(Cc3cccc4c3OCO4)C2)c(OC)c1 (stereo not drawn) | -1 | -5
CCCNC(=O)c1c(O)nc2scc(C)n2c1=O | -1 | -1
O=c1cc(O)[n+]2c3n1CCCN3CCC2 | 6 | 8
Cc1ncc([N+](=O)[O-])n1CCSc1nc2ccccc2[nH]1 | 4 | 5
COCCCN(Cc1csc(COc2ccc(OC)cc2)n1)C(=O)CC(C)C | -3 | 8
c1ccc2c(N3CCCC3)nc(N3CCCC3)nc2c1 | 3 | 0
Cc1cc(C(=O)Nc2ccc(OC(C)C)cc2)n[nH]1 | -7 | -8
O=C(NC1CCc2ccccc21)C1CCN(c2nc3c(-c4ccccc4F)csc3c(=O)[nH]2)CC1 (stereo not drawn) | -9 | -11
Cc1nc2c(Br)c3nc(C(F)(F)F)[nH]c3c(Br)c2[nH]1 | 3 | 1
FC(F)(F)c1cccc(C2(c3nc(-c4ccccn4)no3)CCOCC2)c1 | 4 | -4
CN(Cc1cccc(F)c1)Cc1cccc(C(N)=O)c1 | -2 | -2
Cc1ccc(C)c(SCc2ccc(C(=O)N3C4CCC3CC(Oc3ccc(F)cc3F)C4)cc2)c1 (stereo not drawn) | 7 | -5
CCOC(=O)c1cnn(Cc2ccccc2)c1N | 5 | 4
O=C(C1CCCOC1)N1CCSCC1c1ccccc1 (stereo not drawn) | 2 | -1
CCCn1c(=O)c2c(nc3n(-c4cc(C)cc(C)c4)c(C)c(C)n23)n(C)c1=O | 5 | 6
CN(c1ncnc2nc[nH]c12)C1CCCCC1 | -7 | -8
CCOC(=O)COc1ccc(C)cc1C(=O)c1cnc2c(c1)COc1ccccc1-2 | -7 | -7
Cc1cc(NC(=O)CC2CSc3nc(C(C)C)cc(=O)n32)no1 (stereo not drawn) | -3 | -4
OCc1cc(Br)cc(CO)c1O | -2 | -2
COC(=O)CCC(=O)N(Cc1c(C)nn(C)c1C)C(C)C | -1 | -6
Cc1ccc(F)c(Oc2cc(N3CCC(C)CC3)ncn2)c1 | -9 | -8
Cc1nc2sc(C)c(C)n2c(=O)c1NC(=O)C1CCCO1 (stereo not drawn) | 12 | 10
Cn1nc(-c2c(-c3ccccc3)ncn2C2CCNC2)c2c(Cl)cccc21 (stereo not drawn) | 6 | 1
Cn1nc(CC(=O)NC2CCC3CCCCC3C2)c2ccccc2c1=O (stereo not drawn) | 0 | 0
CCC(CC)n1nc(C)cc1NC(=O)CCc1ccccc1 | 1 | -5
Cc1ccc2[nH]c(=O)cc(C(=O)N3CCC(n4cc(C(C)(C)C)nn4)CC3)c2c1 | 5 | -8
Cc1ccc(-c2csc(NC(=O)c3ccc(C(=O)c4ccccc4)cc3)n2)c(C)c1 | -7 | -11
CCCCSc1nnc2c(n1)OC(c1ccccc1OCC(=O)OCC)Nc1ccccc1-2 (stereo not drawn) | 11 | 11
O=C(NCCCc1ccccc1)c1cc(=O)c(OCc2ccccc2)co1 | 1 | 0
O=C1C(=Cc2ccc([N+](=O)[O-])cc2)SC(=S)N1C1CCS(=O)(=O)C1 (stereo not drawn) | 2 | -2
Cc1ccc(C(C)C)c(OCC(O)CNC(C)(C)C)c1 (stereo not drawn) | -11 | -15
O=C(N[C@@H]1CCCCC1NC(=O)C1CCCN(C(=O)c2ccccc2F)C1)c1ccc(F)cc1 (stereo partly drawn) | 1 | 3
Cc1ccc(-c2csc(-n3[nH]c(C)c(N=Nc4cc(Cl)ccc4Cl)c3=O)n2)cc1 | 2 | -5
COc1ccc(N2CCN(C(=O)C3CCCCC3C(=O)NCCc3cccc(Cl)c3)CC2)cc1 (stereo not drawn) | -7 | -14
CSc1nc(N2CCOCC2)c2cnn(CCNC(=O)Cc3ccccc3)c2n1 | 3 | 2
O=C(O)CN1C(=O)/C(=C\c2cc(Cl)cc(Cl)c2O)SC1=S | 19 | 8

One compound at a time, as listed above. Values in the order: NPYLR7 ag	NPYLR7 ag max-min
Profile of Cc1ccc(C(C)C)c(OCC(O)CNC(C)(C)C)c1 (stereo not drawn) = -11	-15
Profile of O=C(NCCCc1ccccc1)c1cc(=O)c(OCc2ccccc2)co1 = 1	0
Profile of Cc1nc2sc(C)c(C)n2c(=O)c1NC(=O)C1CCCO1 (stereo not drawn) = 12	10
Profile of Cc1ccc(-c2csc(NC(=O)c3ccc(C(=O)c4ccccc4)cc3)n2)c(C)c1 = -7	-11
Profile of O=C1C(=Cc2ccc([N+](=O)[O-])cc2)SC(=S)N1C1CCS(=O)(=O)C1 (stereo not drawn) = 2	-2

Other compounds follow:
SMILES | NPYLR7 ag | NPYLR7 ag max-min
COc1ccc(C2SCCN2C(=O)c2cc3ccccc3oc2=O)cc1[N+](=O)[O-] (stereo not drawn) | 5 | 5
Cc1ccc(C(C)(C)C)cc1S(=O)(=O)NC(=O)C1=NN(C)C(=O)CC1 | 8 | 5
O=C(CCC1CCCCC1)Nc1ccc(-n2cccn2)cc1 | -1 | -2
Cc1ccc(-c2nc3ccccn3c2NC(=O)C(C)(C)CCl)cc1 | -4 | -2
Cc1cccc(Cn2cccc2CN(C(=O)CN(CC(C)C)C(=O)C(C)(C)CCl)C(C)(C)C)c1 | -11 | 0
CC(C)C1CN(c2cncc(C(=O)N3CCOCC3)n2)CCCN1CC1CC1 (stereo not drawn) | 4 | 3
CC(C)[C@H]1CC[C@H](C)C[C@@H]1OCC(=O)N1CCCC1c1nnc2c(C(F)(F)F)cccn12 (stereo partly drawn) | 8 | 0
COc1ccc(-c2csc(=Nc3cccc(Cl)c3)n2CC2CCCO2)cc1 (stereo not drawn) | -12 | -17
Cc1nn(Cc2ccccc2)c2sc(C(=O)NCC(CC(C)C)N3CCOCC3)cc12 (stereo not drawn) | 0 | -3
Cc1ccc(NC(=O)c2nn3c(C(F)(F)F)cc(-c4ccc(Br)cc4)nc3c2Cl)cc1C | 3 | 4
CC1CN(C)c2ccccc2CN1c1cc(-n2ccnc2)ncn1 (stereo not drawn) | 1 | 0
FC(F)(F)COCC(F)(F)F | -3 | -10
O=C(NCc1ccco1)C(=O)N1CCCC1 | 9 | 10
O=C(Nc1cccc2ccccc12)N1CCCCC1CCN1CCOCC1 (stereo not drawn) | 11 | 8
Cn1c(=O)n(CC(O)COc2ccc(F)cc2)c2ccccc21 (stereo not drawn) | -2 | -1

Of the compounds above, three contain a furan ring, fused or not.
SMILES | NPYLR7 ag | NPYLR7 ag max-min
S=c1[nH]nc(-c2ccc(Cl)cc2)n1N=CC=Cc1ccco1 | 6 | 4
O=C(c1ccco1)N(CCCN1CCOCC1)c1nc2ccc(F)cc2s1 | -10 | -11
O=C(NCc1ccco1)C(=O)N1CCCC1 | 9 | 10

(list continues)
SMILES | NPYLR7 ag | NPYLR7 ag max-min
Cc1nc(C)c(C(=O)Nc2cc(-n3c(C)nc4ccccc4c3=O)ccc2Cl)s1 | 4 | -2
Oc1ccc(Br)cc1C=NN1CCN(C2c3ccccc3-c3ccccc32)CC1 | 6 | 6
COc1cccc(-c2ncc(CN3CC[C@H]4CC[C@@H](C3)N4)s2)c1 | 5 | 5
COC(=O)c1ccccc1NC(=O)c1nc2nc(C)cc(C)n2n1 | -13 | -17
CC(C)NC(=O)C1CCN(C2CCN(C(=O)C3(C)CCCCC3)CC2)CC1 | 2 | 0
CC#CCN(Cc1ccco1)C(=O)c1ccc(OC2CCN(Cc3ccccn3)CC2)cc1 | -6 | -6
Cc1ccc(-c2cccc(CN3CCC(n4nccc4NC(=O)C4CC4)CC3)c2)o1 | 3 | -3
CN(CCOc1ccccc1F)S(=O)(=O)c1cccc(Cl)c1Cl | 6&6 | 5&3
CCOC(=O)CCC(=O)Nc1cc(-c2ccc(OC)cc2)nn1-c1cc(Cl)ccc1Cl | 22 | 23
Cc1ccc(S(=O)(=O)C(C#N)=Cc2cccc(Cl)c2)cc1 | -2 | -6
CCOC(=O)c1ccc2c(c1)nc(SCC(=O)NCc1cccs1)n2Cc1cccc(F)c1 | 2 | -1
COc1ccc(OC)c(S(=O)(=O)NCc2ccccc2CN2CCCCC2)c1 | 6 | 4
CCNc1ncc(C(=O)N2CCOC(CCCC(C)C)C2)cn1 (stereo not drawn) | 6 | 4
O=C(CS(=O)(=O)Cc1c(F)cccc1Cl)NCC1CC1 | -3 | 2
COC(=O)CCNC(=O)CN1CCc2[nH]c3ccc(Cl)cc3c2C1 | -4 | -7
O=C1NC(=NC2CCCC2)SC1=Cc1cc2c(cc1Br)OCO2 | 2 | 1
O=C(COC(=O)c1ccc(Br)o1)Nc1nc(-c2ccco2)c(-c2ccco2)s1 | -5 | -6
CC(=O)NC(=O)c1cc2ccccc2oc1=NCc1ccccc1 | -5 | -10
N#CCCN(CC1CCCO1)C(=O)c1ccccc1OCc1cccnc1 (stereo not drawn) | 9 | 3
N#Cc1cccc(NC(=O)c2cc(C3CCCCN3C(=O)CCCc3ccccc3)on2)c1 (stereo not drawn) | 22 | 10
O=C(C1CCC1)N1CCCC(OCc2cccc(Cl)c2)C1 (stereo not drawn) | -2 | -1
Cc1ccccc1C(CNC1CCN(C(=O)c2ccccc2)CC1)N(C)C (stereo not drawn) | 20 | 5
